Vaccinia stage – Vaccinia orthopox stage-specific inhibition. Vaccinia-infected cells, mCherry/Venus stage reporter fluorescence; hits give low values; some inactives read as strong as hits. activity change (mCherry), % (concentration not given with the values). hit rate 0.01% among 89,000;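 active = mCherry past -33% and 40 or more points under the early reporter, replicates agreeing; inconclusive = past -33% without that gap or agreement; tested in A549 cells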;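 note: scaled between vehicle wells and reference inhibitor wells; 23 nL library stock went into each well; one replicate is shown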
Vaccinia stage Venus – further read-out of Vaccinia stage, marked with its call; activity change (Venus), %; measured here: Venus reporter, other viral stage;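 negative = less Venus signal; first of two replicates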
An asterisk follows results filed as active; ? = inconclusive; / = not tested or not shown.

compound	Vaccinia stage	Vaccinia stage Venus
Cc1ccccc1S(=O)(=O)N1[C@@H](C#N)[C@@H](c2ccccc2)[C@@H]1CO	4	3
CCNC(=O)C[C@H]1C=C[C@@H](NS(=O)(=O)c2ccc(C)cc2)[C@@H](CO)O1	11	14
C[C@@H]1CN([C@@H](C)CO)C(=O)Cc2cc(NS(=O)(=O)c3ccccc3)ccc2O[C@H]1CN(C)C	14	-1
CO[C@@H]1CN(C)C(=O)c2ccc(NC(=O)Cc3ccccc3)cc2OC[C@H](C)N(C(C)=O)C[C@@H]1C	12	11
Cc1noc(C)c1NC(=O)N(C)C[C@@H]1Oc2cc(C#CCC3CCCC3)ccc2S(=O)(=O)N([C@@H](C)CO)C[C@H]1C	?	/
C[C@@H]1CCCCO[C@H](CN(C)C(=O)C2CCCCC2)[C@H](C)CN([C@@H](C)CO)C(=O)c2cc(NC(=O)Nc3ccc(C(F)(F)F)cc3)ccc2O1	?	/
COc1ccc(C#Cc2cnc3c(c2)C(=O)N([C@H](C)CO)C[C@@H](C)[C@@H](CN(C)C(C)=O)O3)cc1	8	11
C[C@@H]1CN([C@H](C)CO)C(=O)c2cccc(NC(=O)C3CC3)c2O[C@H]1CN(C)C(=O)Nc1cccc2ccccc12	11	8
O=C(c1ccncc1)N1CCCCN2[C@@H](CO)[C@@H](c3ccc(-c4ccccc4)cc3)[C@@H]2C1	7	1
C[C@H](CO)N1C[C@H](C)[C@@H](CN(C)S(C)(=O)=O)Oc2ccc(NS(=O)(=O)c3cn(C)cn3)cc2CC1=O	11	4
CCCN(C)C[C@@H]1Oc2cc(C#CC(C)(C)O)ccc2S(=O)(=O)N([C@H](C)CO)C[C@@H]1C	21	15
C[C@H](O)C#Cc1ccc2c(c1)O[C@@H](CN(C)C(=O)C1CC1)[C@H](C)CN([C@H](C)CO)S2(=O)=O	24	16
Cc1ccc(S(=O)(=O)Nc2ccc3c(c2)C(=O)N([C@H](C)CO)C[C@H](C)[C@H](CN(C)C(=O)NC(C)C)OCCCC[C@@H](C)O3)cc1	11	3
O=C(Cc1cccnc1)N1CC2(C1)[C@H](c1ccccc1)[C@@H](CO)N2C(=O)C1CCC1	4	3
C[C@H]1CN([C@@H](C)CO)C(=O)c2cccc(NC(=O)CCCCCC(=O)Nc3ccccc3N)c2O[C@@H]1CN(C)C(=O)Nc1ccc(C(F)(F)F)cc1	5	18
CCNC(=O)[C@H]1[C@H](CO)[C@H]2Cn3c(ccc(-c4ccccc4)c3=O)[C@H]2N1C(=O)Cc1cccnc1	13	13
O=C(Nc1cc(F)ccc1F)N1CC(=O)N2[C@H](C1)[C@@H](c1ccc(-c3cccc(F)c3)cc1)[C@@H]2CO	?	/
Cc1ccccc1-c1ccc([C@H]2[C@H](CO)N3CCCCN(C(=O)Nc4cccc(F)c4)C[C@@H]23)cc1	?	/
Cc1noc(C)c1S(=O)(=O)Nc1ccc2c(c1)CC(=O)N([C@@H](C)CO)C[C@@H](C)[C@H](CN(C)C(=O)Nc1cccc3ccccc13)O2	-5	6
CN(C)CC#Cc1ccc([C@H]2[C@H](CO)N3CCCCN(C(=O)CN(C)C)C[C@@H]23)cc1	19	5
COCC#Cc1cnc2c(c1)C(=O)N([C@@H](C)CO)C[C@@H](C)[C@@H](CN(C)C)O2	25	15
Cc1cccc(S(=O)(=O)N[C@H]2CC[C@H](CCNS(=O)(=O)c3ccccc3F)O[C@H]2CO)c1	-9	-1
COCC(=O)N1C[C@@H](C)[C@@H](OC)CN(C)C(=O)c2cc(NC(=O)Nc3cccc(F)c3)ccc2OC[C@@H]1C	6	10
CCOC(=O)N(C)C[C@@H]1OCc2ccccc2-c2ccccc2C(=O)N([C@@H](C)CO)C[C@H]1C	20	17
C[C@@H]1CN([C@@H](C)CO)C(=O)c2cc(-c3ccccc3)cnc2O[C@H]1CN(C)C(=O)c1ccccc1F	12	-4
COc1ccccc1S(=O)(=O)N[C@H]1CC[C@@H](CC(=O)N2CCCCC2)O[C@H]1CO	9	16
C/C=C/c1cnc2c(c1)C(=O)N([C@@H](C)CO)C[C@H](C)[C@H](CN(C)Cc1ccncc1)O2	17	6
C[C@@H]1CCCCO[C@@H](CN(C)C(=O)Nc2cccc3ccccc23)[C@H](C)CN([C@@H](C)CO)C(=O)c2cc(NC(=O)NC3CCCCC3)ccc2O1	-1	14
COc1ccc2c3c([nH]c2c1)[C@@H](CO)N(C(=O)Cc1ccccc1)CC31CCN(C(=O)Nc2ccccc2F)CC1	-27	-29
N#C[C@H]1[C@H](c2ccc(C#CCC3CCCC3)cc2)[C@H](CO)N1C(=O)c1ccccn1	5	8

Brought forward from above: five entries, followed by the next part.
compound	Vaccinia stage	Vaccinia stage Venus
COc1ccccc1S(=O)(=O)N[C@H]1CC[C@@H](CC(=O)N2CCCCC2)O[C@H]1CO	9	16
C/C=C/c1cnc2c(c1)C(=O)N([C@@H](C)CO)C[C@H](C)[C@H](CN(C)Cc1ccncc1)O2	17	6
C[C@@H]1CCCCO[C@@H](CN(C)C(=O)Nc2cccc3ccccc23)[C@H](C)CN([C@@H](C)CO)C(=O)c2cc(NC(=O)NC3CCCCC3)ccc2O1	-1	14
COc1ccc2c3c([nH]c2c1)[C@@H](CO)N(C(=O)Cc1ccccc1)CC31CCN(C(=O)Nc2ccccc2F)CC1	-27	-29
N#C[C@H]1[C@H](c2ccc(C#CCC3CCCC3)cc2)[C@H](CO)N1C(=O)c1ccccn1	5	8
O=C(C[C@@H]1CC[C@H]2[C@@H](COC[C@H](O)CN2C(=O)Nc2ccccc2)O1)NCc1ccccc1F	8	10
CCCC#Cc1ccc([C@@H]2[C@@H](C#N)N(C(=O)C3CCCC3)[C@H]2CO)cc1	-27	-20
COc1ccc(NC(=O)Nc2ccc3c(c2)C(=O)N([C@H](C)CO)C[C@H](C)[C@H](CN(C)C(=O)Nc2ccc(F)cc2)OCCCC[C@@H](C)O3)cc1	5	-4
CO[C@@H]1CN(C)C(=O)c2cc(NC(=O)NC(C)C)ccc2OC[C@@H](C)N(C(=O)CN(C)C)C[C@H]1C	12	-2
COc1ccc(-c2ccccc2[C@@H]2[C@H](C#N)N(C(=O)C3CC3)[C@H]2CO)cc1	6	14
C[C@H]1CN([C@@H](C)CO)C(=O)c2cc(-c3ccccc3F)cnc2O[C@H]1CN(C)C	-3	-6
C[C@@H](NC(=O)[C@H]1[C@H](CO)[C@H]2Cn3c(cccc3=O)[C@H]2N1Cc1cccnc1)c1ccccc1	17	20
CC=Cc1ccc2n(c1=O)C[C@@H]1[C@@H](CO)[C@H](C(=O)NC3CCC3)N(C(=O)C3CCC3)[C@H]21 (mixture of isomers)	20	12
CC(C)NC(=O)Nc1ccc2c(c1)C(=O)N([C@H](C)CO)C[C@@H](C)[C@H](CN(C)CC1CCCCC1)OCCCC[C@@H](C)O2	-7	-11
C[C@H](CO)N1C[C@H](C)[C@@H](CN(C)Cc2ccc3c(c2)OCO3)Oc2c(NC(=O)NC3CCCCC3)cccc2C1=O	?	/
C[C@H](CO)N1C[C@H](C)[C@@H](CN(C)S(C)(=O)=O)Oc2c(NC(=O)c3nc4ccccc4s3)cccc2C1=O	7	7
CN(C)C(=O)[C@@H]1[C@@H](CO)[C@@H]2Cn3c(ccc(/C=C/c4ccccc4)c3=O)[C@@H]2N1CC1CC1	-8	-4
C[C@H](CO)N1C[C@H](C)[C@@H](CN(C)Cc2ccncc2)Oc2ncc(C#Cc3cccnc3)cc2C1=O	5	6
O=C(C1CCCC1)N1CC2(C1)[C@H](c1ccccc1)[C@H](CO)N2CC1CCCC1	-10	1
CNC[C@H]1OCCCC[C@H](C)Oc2ccc(NC(=O)C3CCCCC3)cc2C(=O)N([C@@H](C)CO)C[C@@H]1C	-3	9

Brought forward from above: 3 compounds; new compounds follow.
compound	Vaccinia stage	Vaccinia stage Venus
C[C@H](CO)N1C[C@H](C)[C@@H](CN(C)Cc2ccncc2)Oc2ncc(C#Cc3cccnc3)cc2C1=O	5	6
O=C(C1CCCC1)N1CC2(C1)[C@H](c1ccccc1)[C@H](CO)N2CC1CCCC1	-10	1
CNC[C@H]1OCCCC[C@H](C)Oc2ccc(NC(=O)C3CCCCC3)cc2C(=O)N([C@@H](C)CO)C[C@@H]1C	-3	9
C/C=C/c1ccc([C@H]2[C@@H](CO)N(CC3CCCC3)[C@H]2CNC(C)=O)cc1	-9	6
C[C@H](CO)N1C[C@H](C)[C@@H](CN(C)S(=O)(=O)c2ccc(Cl)cc2)Oc2ccc(NC(=O)Nc3cccc4ccccc34)cc2C1=O	13	13
CCC(=O)Nc1ccc2c(c1)OC[C@@H](C)N(C(=O)Cc1cccnc1)C[C@H](C)[C@@H](OC)CN(C)C2=O	16	5
COCC#Cc1ccc([C@@H]2[C@@H](CO)N3CCCCN(S(=O)(=O)c4ccc(OC)cc4)C[C@@H]23)cc1	-16	-13
CC(C)NC(=O)N(C)C[C@H]1Oc2ccc(NC(=O)Nc3cccc4ccccc34)cc2C(=O)N([C@H](C)CO)C[C@@H]1C	6	3
C[C@@H]1CN([C@H](C)CO)C(=O)c2cc(C3=CCCCC3)cnc2O[C@H]1CN(C)Cc1ccncc1	-16	-7
Cc1noc(C)c1NC(=O)NCC[C@H]1CC[C@H](NC(=O)c2ccccc2)[C@@H](CO)O1	-6	-5
COc1ccc(-c2ccc([C@H]3[C@@H](CO)N4CCCCN(CC5CCOCC5)C[C@@H]34)cc2)cc1	2	3
N#Cc1ccc(-c2ccc([C@@H]3[C@H]4CNC[C@@H]3N4Cc3cc(F)ccc3F)cc2)cc1	?	/
Cc1noc(C)c1S(=O)(=O)N(C)C[C@H]1OCCCC[C@@H](C)Oc2ccc(NS(=O)(=O)c3ccccc3)cc2C(=O)N([C@@H](C)CO)C[C@H]1C	?	/
C[C@@H]1CN([C@H](C)CO)C(=O)CCCn2cc(nn2)CO[C@H]1CN(C)C(=O)Nc1cccc(F)c1	10	10
O=C(NCC1CCCCC1)[C@@H]1[C@@H](CO)[C@@H]2Cn3c(ccc(-c4cccnc4)c3=O)[C@H]1N2	11	6
C[C@@H]1CN([C@@H](C)CO)C(=O)c2cccc(NS(=O)(=O)c3ccccc3)c2O[C@H]1CN(C)Cc1ccc(Oc2ccccc2)cc1	-31	-14
C[C@@H]1CCCCO[C@H](CN(C)S(=O)(=O)c2ccc(F)cc2)[C@H](C)CN([C@@H](C)CO)C(=O)c2cc(NC(=O)CCC(F)(F)F)ccc2O1	-20	-17
Cc1noc(C)c1S(=O)(=O)N(C)C[C@@H]1Oc2ccc(NS(=O)(=O)c3ccccc3)cc2C(=O)N([C@H](C)CO)C[C@@H]1C	19	12
CCCC#Cc1ccc2c(c1)O[C@@H](CN(C)C(=O)NC(C)C)[C@H](C)CN([C@@H](C)CO)S2(=O)=O	-15	-9
CO[C@H]1CN(C)C(=O)c2ccc(NC(=O)NC(C)C)cc2OC[C@@H](C)N(C(=O)CN(C)C)C[C@H]1C	1	2
N#C[C@@H]1[C@@H](c2ccc(-c3ccc(F)cc3)cc2)[C@H](CO)N1C(=O)Cc1ccccc1	-25	-19
C[C@@H](NC(=O)C[C@H]1C=C[C@@H](NC(=O)C2CCOCC2)[C@@H](CO)O1)c1ccccc1	1	-2
C[C@@H]1CN([C@@H](C)CO)S(=O)(=O)c2ccc(-c3cncnc3)cc2O[C@@H]1CN(C)C(=O)Cc1cccnc1	27	20
C[C@@H]1CN([C@H](C)CO)C(=O)c2cc(NC(=O)Nc3cccc4ccccc34)ccc2O[C@@H](C)CCCCO[C@H]1CN(C)Cc1ccccc1	?	/
COc1ccc(NC(=O)Nc2ccc3c(c2)C(=O)N([C@@H](C)CO)C[C@@H](C)[C@@H](CN(C)Cc2ccc(Cl)c(Cl)c2)O3)cc1	?	/
COc1cccc(CNC(=O)[C@@H]2[C@@H](CO)[C@@H]3Cn4c(ccc(C5=CCCCC5)c4=O)[C@H]2N3)c1	9	2
CN1C[C@@H]2[C@H](c3ccccc31)[C@H](CO)N2C(=O)c1cccnc1	13	15
COc1ccc(CNC(=O)C[C@H]2C[C@H]3c4cc(NC(=O)NC5CCCC5)ccc4O[C@H]3[C@@H](CO)O2)cc1	-5	0
O=C(C[C@@H]1CC[C@H]2[C@@H](COC[C@H](O)CN2Cc2cc(F)cc(F)c2)O1)NCc1cccc(F)c1	9	3
CN(C)C(=O)[C@H]1[C@H](CO)[C@H]2Cn3c(ccc(C4=CCCCC4)c3=O)[C@@H]1N2Cc1ccccc1	5	6
CN(C)C(=O)C[C@H]1CC[C@@H]2[C@H](COc3ccc(NC(=O)c4ccc(F)c(F)c4)cc3C(=O)N2C)O1	11	9
CO[C@H]1O[C@H](CO)[C@@H](OC(=O)Nc2ccccc2-c2ccccc2)[C@H](OC(=O)Nc2ccccc2-c2ccccc2)[C@@H]1OC(=O)Nc1ccccc1-c1ccccc1	5	8
C[C@@H]1CCCCO[C@H](CN(C)S(=O)(=O)c2ccccc2)[C@@H](C)CN([C@H](C)CO)C(=O)c2cc(NS(=O)(=O)c3cn(C)cn3)ccc2O1	4	2
Cc1noc(C)c1S(=O)(=O)Nc1ccc2c(c1)C(=O)N([C@H](C)CO)C[C@@H](C)[C@H](CN(C)CC1CCCCC1)OCCCC[C@@H](C)O2	-25	-21

Bioassay records: PubChem, Broad Institute

These rows are one share of the data (hit frequency here may not be typical).
